Source: PubChem (ICCB-Longwood Screening Facility, Harvard Medical School)
GIV Gai3 FP – inhibitors of GIV peptide binding to Galpha-i3, primary screen, biochemical, fluorescence polarization, FITC-GIV GBA peptide, rat Galphai3. Guanine nucleotide-binding protein G(i) subunit alpha-3 (Rattus norvegicus), P08753. percent of control (FP), % (no concentration beside the values). 90 min; active compounds read low; scaled: aluminum fluoride 0%, vehicle 100%. 210,000 tested, 0.42% active;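 active means replicate mean at 85% of control or lower, very high polarization wells dropped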;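 further: wells of about 15 µL received 100 nL stock; the first replicate is given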
Target sequence (P08753 whole entry, looked up): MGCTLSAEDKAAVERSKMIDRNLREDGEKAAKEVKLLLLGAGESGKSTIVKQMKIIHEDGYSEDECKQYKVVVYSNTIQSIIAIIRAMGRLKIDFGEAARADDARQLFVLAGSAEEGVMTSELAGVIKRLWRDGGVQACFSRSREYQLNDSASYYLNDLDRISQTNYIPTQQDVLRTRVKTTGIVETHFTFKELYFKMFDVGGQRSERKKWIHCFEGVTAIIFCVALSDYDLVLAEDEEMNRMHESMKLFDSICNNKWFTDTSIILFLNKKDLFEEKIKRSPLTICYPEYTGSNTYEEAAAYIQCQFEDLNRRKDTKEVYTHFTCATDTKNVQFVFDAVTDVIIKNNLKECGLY
* marks the source's active call; other numbers are inactive results.

SMILES	GIV Gai3 FP
CCCC(CCC)C(=O)Nc1ccc2c(c1)N(C(=O)CN1CCN(C)CC1)c1ccccc1CC2	104.7
CCc1nnc2ccc(NC3CC3)nn12	99.9
N#CC1=C(N)OC2=C(C(=O)CCC2)C1c1ccc(OC(=O)c2ccccc2Cl)cc1 (centres undefined)	116.5
Cn1c(=O)n(CC(=O)NCc2cccnc2)c(=O)c2ccccc21	109.2
N#Cc1ccc(C2N(Cc3ccccc3)CCN2Cc2ccccc2)cc1	109.8
COc1ccc(C2SCC(=O)N2CCOc2ccccc2Cl)cc1OC (centres undefined)	107.7
COc1ccc(NC(=O)C2CCN(S(=O)(=O)c3cc(-c4noc(C)n4)cs3)CC2)cc1OC	103.0
COCCCNC(=O)c1cc(-c2ccc(OC)c(OC)c2)nc2n[nH]c(-c3ccc(Br)cc3)c12	103.2
COC(=O)CSc1nc(N2CCCCC2)c2c(c1C#N)CCCC2	104.6
Cn1c2c(c(=O)[nH]c1=O)C(c1ccc(Cl)cc1)C1=C(N2)c2ccccc2C1=O (centres undefined)	110.4
O=C(c1ccc(Oc2nccnc2Sc2ccc(Cl)cc2)cc1)N1CCOCC1	96.4
CC1=CCN(S(=O)(=O)c2ccccc2)/S(=N/S(=O)(=O)c2ccccc2)C1 (centres undefined)	106.1
Cc1nc2ccccc2c(=O)n1-c1ccc(NC(=O)Cc2ccccc2F)cc1	106.5
CCOC(=O)C1=C(C)Nc2ncnn2C1c1cc(Br)ccc1F (centres undefined)	103.1
CC1(C)CC(=O)C2=C(C1)c1c(ccc3ccccc13)NC2c1cc(Br)cc(Br)c1OCc1ccc(Cl)cc1Cl (centres undefined)	106.1
Cc1ccc2oc(SCc3noc(CCC(=O)Nc4nncs4)n3)nc2c1	108.6
Fc1ccc2nc(-c3ccccc3)c(-c3ccccc3)nc2c1	112.6
CCn1c(SCC(N)=O)nnc1-c1ccc2[nH]c(C)c(C)c2c1	101.9
COc1ccc(NC(=O)C2=C(C)NC(=O)NC2c2ccc(OC)c(OC)c2)c(OC)c1 (centres undefined)	103.3
O=C(c1ccc([N+](=O)[O-])cc1)N1CCc2c([nH]c3ccccc23)C1c1ccccc1 (centres undefined)	110.8
CCSc1nc2c3cc(OC)ccc3n(C)c2c(=O)n1C	99.2
Cc1ccc(N2C(=O)C3C4c5ccccc5C(c5ccccc54)C3C2=O)cc1[N+](=O)[O-] (centres undefined)	110.4
O=c1[nH]c(SCc2cccc(F)c2)nc2c1CN(Cc1ccc(F)cc1)CC2	99.9
O=C(Nc1ccc(F)cc1)c1nnc(C2CCCN(C(=O)Nc3ccccc3)C2)s1 (centres undefined)	111.3
CCSc1nnc(-c2nn(C)c3c2CN(S(=O)(=O)Cc2ccccc2F)CC3)n1CC	107.5
CCOc1cc(/C=C2\SC(=N)N(c3nonc3N)C2=O)ccc1OCC(N)=O	118.0
Oc1ccc2ccccc2c1CN1CCC(Cc2ccccc2)CC1	116.1
O=C(NCc1csc(-c2ccccc2)n1)[C@H]1CCCN1C(=O)Nc1ccc(Br)cc1	102.7
CCOc1ccc(Br)cc1C1Nc2c(C)cc(C)cc2[C@H]2OCC[C@@H]12 (some centres undefined)	101.2
Cc1ccc(-c2[nH]ncc2CN2CCCC2c2c(C)noc2C)cc1C (centres undefined)	122.2
Cc1ccc2c(c1)C(C)(c1ccccc1)CC(C)(C)N2C(=O)CN1CCCCC1 (centres undefined)	101.9
CC12COC3(C(=O)Nc4ccccc4Cl)CC1CCC32C (centres undefined)	104.6
CCN(CC)Cc1c(C(=O)N/N=C/CCc2ccccc2)nnn1-c1nonc1N	102.1
Cc1cc(C2CCCN2S(=O)(=O)c2ccc(Cl)cc2)no1 (centres undefined)	99.9
CCc1cc(C2CCCN2C(=O)c2cc(-c3cccs3)on2)on1 (centres undefined)	102.1
COc1ccc(C(=O)CC2(O)C(=O)Nc3ccc(C)cc32)cc1OC (centres undefined)	117.7
N#CC1=CN(c2ccc(F)c(F)c2)c2cc(Cl)ccc2S1(=O)=O	98.6
COc1cc(OC)cc(C(=O)NCc2nnc(SCC(=O)N3N=C(c4cccs4)CC3c3ccc(C)cc3)n2C)c1 (centres undefined)	105.1
CC(C)Cc1csc(-c2csc(S(=O)(=O)NCc3ccccc3Cl)c2)n1	101.7
COc1ccccc1Oc1cc(-c2cccc(C(=O)N3CCCC3)c2)ncn1	106.2
O=[N+]([O-])c1cc(N=Cc2nc(-c3ccc(Br)cc3)oc2O)ccc1Cl	106.3
O=C1NC(=S)N/C1=C/c1ccccc1OCc1ccccc1F	102.4
CN(C)C(=O)c1nc(-c2ccsc2)nc2c1OCCO2	102.8
Cc1cccc(N(C)NC(=O)Cc2ccccc2)c1	106.2
COC(=O)C1=C(C(=O)OC)SC2(S1)C(C(=O)OC)=C(C(=O)OC)SC1=C2c2cc(C)cc(C)c2N(C(=O)c2ccccc2)C1(C)C	119.1
COc1ccc(OC)c(S(=O)(=O)NCc2nc3cccnc3n2C2CCCC2)c1	98.1
CC(=O)c1cccc(NC(=O)CSC2=C(C#N)C(c3ccco3)C3=C(CCCC3=O)N2)c1 (centres undefined)	111.6
CCCN1CCN(c2ncnc3sc(C(=O)Nc4ccc(OCC)cc4)c(C)c23)CC1	106.9
CCOc1cc(C2C(C(=O)N3CCOCC3)=C(C)NC3=C2C(=O)CC(C)(C)C3)cc(Br)c1O (centres undefined)	100.4
CN(C)c1cc(N2CCCC(NC(=O)c3ccco3)C2)ncn1 (centres undefined)	90.3
CCOC(=O)c1c(CNCCN(CC)CC)n(-c2ccccc2)c2cc(Br)c(OC)cc12	113.2
COc1ccc(C2C(C#N)=C(N)N(c3ccc(Br)cc3)C3=C2C(=O)CCC3)cc1OC (centres undefined)	115.2
N#Cc1c(C(F)(F)F)cc(-c2cccs2)nc1SCC(=O)NCc1ccccc1	107.4
CC(=O)Nc1ccc2c(c1)OCCOCCOCCOCCOCCO2	114.3
CC(=O)N1CCc2cc(-c3ccc(C(=O)N4CCN(c5ccccn5)CC4)cc3)ccc21	98.1
CC1(C)CC(=O)C2=C(C1)c1c(ccc3ccccc13)NC2c1ccc(OC(=O)c2cc(F)c(F)cc2Cl)cc1 (centres undefined)	105.7
COc1ccc(-c2nc(-c3ccc4c(c3)ncn4CCC(=O)N3CCCC3)no2)c(OC)c1	101.7
Clc1ccc(Nc2nc(NCC3CCCO3)nc3c2cnn3-c2ccccc2)cc1 (centres undefined)	97.9
CCC(C)(C)NC(=O)CN(C)S(=O)(=O)c1cc2c(cc1Cl)NC(=O)CO2	107.4
CCOC(=O)c1c(C)n(CCOc2c(C)cc(C)cc2C)c2c1cc(O)c1ccccc12	108.1
Further compounds:
SMILES	GIV Gai3 FP
CCOc1ccccc1N/C(SCc1ccccc1C)=C(/C#N)C(=O)NCc1cccs1	104.7
COC(=O)C1=CN(c2cc(OC)cc(OC)c2)c2cc(Br)ccc2S1(=O)=O	97.4
CCCCOc1ccc(NC(=O)CSc2nc(N)c(C#N)cc2C#N)cc1	128.8
O=C(CC1CCN(C(=O)c2cc3ccccc3[nH]2)CC1)NCc1ccc(Cl)cc1	99.6
COc1ccc(NC(=O)c2nnc(C3CCN(S(=O)(=O)c4ccccc4)CC3)s2)cc1	104.6
CN(C)c1nc2ncn3c(=O)n(CC(=O)Nc4ccc5c(c4)CCC5)nc3c2s1	103.8
O=C(CSc1nnc2c3sc(N4CCCC4)nc3ncn12)Nc1ccc2c(c1)OCO2	30.5*
O=C(CCc1nc(-c2ccc(S(=O)(=O)N3CCCCC3)cc2)no1)N1CCCC1	104.5
CN(C)c1ccc(C2C(C#N)=C(N)N(c3cccc([N+](=O)[O-])c3)C3=C2C(=O)CC(C)(C)C3)cc1 (centres undefined)	106.3
Cc1ccc(-c2n[nH]c(CCNS(=O)(=O)c3ccc(F)c(F)c3)n2)cc1	99.3
Cc1ccc(C2OC3(C(=O)c4ccccc4C3=O)C3C(=O)N(c4ccccc4Cl)C(=O)C23)cc1 (centres undefined)	101.2
Cc1nn(-c2ccc(C(=O)N3CCN(c4ccccn4)CC3)cc2)c2c1C(=O)CCC2	98.4
Cc1nc(CN2C(=O)COc3ccc(S(=O)(=O)N4CCCc5ccccc54)cc32)no1	103.9
Cc1nc(CCNC(=O)C2CCN(S(=O)(=O)c3ccc(C(C)(C)C)cc3)CC2)cs1	103.0
O=C(Cn1ccc2c(SCc3ccccc3)nccc21)N1CCN(c2ccccc2)CC1	105.2
CCCc1cc(C2CCCN2Cc2cc(C)ccc2C)no1 (centres undefined)	106.2
Cc1ccccc1NC(=O)c1c(NC(=O)c2ccccc2Br)sc2c1CCCCC2	104.4
Cc1ccc(NC(=O)CSc2nc3n[nH]c(C)c3c(=N)n2-c2ccc(Br)cc2)cc1	98.9
CCOC(=O)c1nc(Nc2ccccc2OCC)c2c(C)c(C)n(-c3ccccc3)c2n1	99.3
COc1cc(C2Nc3ccc(Br)cc3C(c3ccccc3)O2)cc(OC)c1OC (centres undefined)	106.5
Cc1ccc(NC(=O)c2cc(S(=O)(=O)N3CCN(c4cccc(Cl)c4)CC3)ccc2F)cc1F	101.7
CCOC(=O)c1cnc2c(C)cc(C)cc2c1Nc1ccc(F)cc1	104.5
CCOc1cccc2cc(C(=O)Nc3ccc(F)cc3)c(=Nc3ccc(C(=O)O)cc3)oc12	104.4
Cc1[nH]c(C)c(S(=O)(=O)NCC2CCCO2)c1-c1nnc(C2CCC2)o1 (centres undefined)	99.1
Cc1onc(-c2cccc(Br)c2)c1C(=O)NC(C)C	104.6
Cc1nc(-c2csc(S(=O)(=O)N3CCCC(C(=O)Nc4ccc(Cl)cn4)C3)c2)no1 (centres undefined)	108.0
CCOC(=O)C1=C(C)OC(N)=C(C#N)C1c1c(C)[nH]c(C#N)c1C (centres undefined)	116.5
O=C(O)c1nnc2ccc(N3CCOCC3)nn12	101.7
CCOC(=O)C1=CN(Cc2ccc(F)cc2)C=C(C(=O)OCC)C1c1cc(OC)c(OC)cc1OC	117.0
CCCS(=O)(=O)c1c(S(=O)(=O)CCC)c2cc(-c3ccncc3)ccn2c1C(=O)N/N=C/c1ccccc1I	111.8
COC(=O)C1=CN(Cc2ccc(OC)c(OC)c2)C=C(C(=O)OC)C1c1cc(OC)c(OC)c(OC)c1	100.4
O=c1n(Cc2cccc(Br)c2)nc2c(S(=O)(=O)N3CCCCCC3)cccn12	103.1
CSc1ccc(C2C3=C(CC(C)(C)CC3=O)OC3=C2C(=O)CC(C)(C)C3)cc1	117.9
CCOC(=O)c1sc2nc(CC(=O)OC)nc(Nc3ccc(F)cc3Cl)c2c1C	101.1
Cc1cccc(N2CC(O)(c3ccccc3)[N+]3=C2SCCC3)c1C (centres undefined)	104.5
COc1ccc(CN2CCCC2c2cc(C(C)C)on2)c(O)c1 (centres undefined)	104.7
COc1ccc(OCC(=O)N2CCC(C(=O)NCCc3csc(-c4ccccc4)n3)CC2)cc1	112.0
Cc1cc(C)c(S(=O)(=O)N2CCN(c3nc(C)cc(N4CCN(C)CC4)n3)CC2)c(C)c1	106.1
Cn1cnnc1SCC(=O)Nc1ccc2nc(SCC(=O)N3CCc4ccccc43)sc2c1	105.5
COc1cccc(Cn2nnc3cc(C(=O)NCc4ccccc4OC)ccc32)c1	109.6

In a second layout: 3 of the compounds above.
compound | GIV Gai3 FP
O=C(O)c1nnc2ccc(N3CCOCC3)nn12 | 101.7
Cc1cc(C)c(S(=O)(=O)N2CCN(c3nc(C)cc(N4CCN(C)CC4)n3)CC2)c(C)c1 | 106.1
Cn1cnnc1SCC(=O)Nc1ccc2nc(SCC(=O)N3CCc4ccccc43)sc2c1 | 105.5

(cont.)
SMILES	GIV Gai3 FP
c1ccc(-n2ncc3c(Nc4ccc5c(c4)OCO5)nc(N4CCOCC4)nc32)cc1	97.0
N#CC1=C(N)n2c(s/c(=C\c3ccccc3F)c2=O)=C(C#N)C1c1ccccc1F (centres undefined)	115.1
COc1cc(-c2nc3sc4c(c3c(=O)[nH]2)CCCC4)cc(Cl)c1OCCOc1ccccc1	107.4
CC(=O)N1CCCc2cc(S(=O)(=O)NC3CCN(Cc4ccccc4)CC3)ccc21	100.2
CCC(C)COC(=O)c1ccc(-c2ccc(-c3ccc(C(=O)OCC(C)CC)cc3)cc2)cc1 (centres undefined)	109.8
Cc1cc(S(=O)(=O)n2nnc3ccccc32)ccc1Cl	113.0
COc1ccc2c(c1)-c1c(ssc1=S)C(C)(C)N2C(=O)CSc1nc(C)cc(C)n1	119.3
CN(C)N1C(N)=C(C#N)C(c2ccccc2C(F)(F)F)C2=C1CC(c1ccccc1)CC2=O (centres undefined)	99.2
CCn1c(=O)n(CC(=O)Nc2cc(Cl)ccc2OC)c(=O)c2ccccc21	105.5
CCOc1ccccc1NC(=O)NCc1ccc2c(c1)N(C(=O)c1ccc(C)cc1)CC2	107.6

Of the compounds above, 13 contain a cyano group.
SMILES	GIV Gai3 FP
N#CC1=C(N)OC2=C(C(=O)CCC2)C1c1ccc(OC(=O)c2ccccc2Cl)cc1 (centres undefined)	116.5
N#Cc1ccc(C2N(Cc3ccccc3)CCN2Cc2ccccc2)cc1	109.8
COC(=O)CSc1nc(N2CCCCC2)c2c(c1C#N)CCCC2	104.6
N#CC1=CN(c2ccc(F)c(F)c2)c2cc(Cl)ccc2S1(=O)=O	98.6
CC(=O)c1cccc(NC(=O)CSC2=C(C#N)C(c3ccco3)C3=C(CCCC3=O)N2)c1 (centres undefined)	111.6
COc1ccc(C2C(C#N)=C(N)N(c3ccc(Br)cc3)C3=C2C(=O)CCC3)cc1OC (centres undefined)	115.2
N#Cc1c(C(F)(F)F)cc(-c2cccs2)nc1SCC(=O)NCc1ccccc1	107.4
CCOc1ccccc1N/C(SCc1ccccc1C)=C(/C#N)C(=O)NCc1cccs1	104.7
CCCCOc1ccc(NC(=O)CSc2nc(N)c(C#N)cc2C#N)cc1	128.8
CN(C)c1ccc(C2C(C#N)=C(N)N(c3cccc([N+](=O)[O-])c3)C3=C2C(=O)CC(C)(C)C3)cc1 (centres undefined)	106.3
CCOC(=O)C1=C(C)OC(N)=C(C#N)C1c1c(C)[nH]c(C#N)c1C (centres undefined)	116.5
N#CC1=C(N)n2c(s/c(=C\c3ccccc3F)c2=O)=C(C#N)C1c1ccccc1F (centres undefined)	115.1
CN(C)N1C(N)=C(C#N)C(c2ccccc2C(F)(F)F)C2=C1CC(c1ccccc1)CC2=O (centres undefined)	99.2

This is a subset (hit frequency here may not be typical).
